ALR inh: inhibitors of human sulfhydryl oxidase ALR | P55789 | 290,000 tested, 3.8% active | AID 485317 | purified ALR, DTT oxidation, H2O2 HRP-luminol luminescence | inhibition, % (test concentration not listed);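 active = mean and each replicate at 75% or more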;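 also: stock transfer was 7.5 nL into about 7.5 µL; 0% = neutral wells and 100% = wells with inactivated enzyme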
Target sequence (P55789 whole entry, looked up): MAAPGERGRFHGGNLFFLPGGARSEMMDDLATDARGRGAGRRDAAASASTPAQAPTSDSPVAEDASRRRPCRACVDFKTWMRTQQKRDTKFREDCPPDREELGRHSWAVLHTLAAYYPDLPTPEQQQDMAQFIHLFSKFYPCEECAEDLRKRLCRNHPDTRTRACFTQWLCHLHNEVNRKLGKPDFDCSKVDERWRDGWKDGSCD
Beta cell apopt: beta cell apoptosis inhibition. INS-1E cytokine-induced death, ATP luminescence, 48 h; percent of positive-control rescue, neutral wells zero. protection from apoptosis, % (concentration not given with the values). 300,000 tested, 0.8% active. AID 435005;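 active = all replicates at 75% or more, or half of them and the mean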;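 also: 0% = cytokine-treated negative control wells and 100% = positive control rescue; higher means more ATP so stronger rescue from cytokine killing; wells of about 40 µL received 100 nL stock; the first replicate is given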
Calb FLC: C. albicans growth modulation with fluconazole. C. albicans CaCi-2 (fluconazole-resistant clinical isolate) + fluconazole, Alamar Blue growth, 48 h. growth inhibition, % (no concentration beside the values). 300,000 tested, 0.57% active. AID 1979;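 active = most replicates above 75%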;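 also: all wells also contain fluconazole at 8 µg/ml as a sub-toxic cotreatment; 0% = median of DMSO wells and 100% = median of geldanamycin control wells; wells of about 8 µL received 7.5 nL stock; the first replicate is given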
LANA-H2B inh: blocks KSHV LANA binding to histone H2A/H2B. AID 2629. cell-free LANA-H2A/H2B peptide, fluorescence polarization. 320,000 tested, 0.6% active. inhibition, % (test concentration not listed); in the data active = inhibition mostly above about 10%, no sharp cut-off; inactive = mostly below about 6.7%;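 also: stock transfer was 7.5 nL into about 10 µL; 0% = median of vehicle wells and 100% = median of positive control wells; one replicate is shown; the record names a cut of 25% in any replicate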
rRNA inh HTS: inhibits bacterial ribosomal RNA function over humanized ribosomes | E. coli WT GFP vs humanized-ribosome RFP mutants, fluorescence, 24 h; hits give low values; DMSO median 0, no signal -100 | 350,000 tested, 1.6% active | GFP signal change (wild-type ribosome), % (concentration not given with the values);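 active = significant combined selectivity score with lowered wild-type GFP, culture density cut under 30%, mutant RFP and density less affected; inactive = any of these conditions unmet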; also: one replicate is shown; some compounds called inactive have numbers as strong as hits
Beta2AR agonist: activates human beta-2 adrenergic receptor causing internalization; P07550; Am2.2-beta2AR cells, FAP receptor internalization, flow cytometry; reference of the scale not given here; response, % (concentration not given with the values); 340,000 tested, 0.43% active; AID 504454;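 active = response above a set limit, near 3 SD of response in nonfluorescent compounds, cut at about 42% in these data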;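 also: stock transfer was 100 nL into about 11 µL; a reference agonist was the positive control; negative values mostly stem from fluorescent compounds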
Target sequence (P07550 whole entry, looked up): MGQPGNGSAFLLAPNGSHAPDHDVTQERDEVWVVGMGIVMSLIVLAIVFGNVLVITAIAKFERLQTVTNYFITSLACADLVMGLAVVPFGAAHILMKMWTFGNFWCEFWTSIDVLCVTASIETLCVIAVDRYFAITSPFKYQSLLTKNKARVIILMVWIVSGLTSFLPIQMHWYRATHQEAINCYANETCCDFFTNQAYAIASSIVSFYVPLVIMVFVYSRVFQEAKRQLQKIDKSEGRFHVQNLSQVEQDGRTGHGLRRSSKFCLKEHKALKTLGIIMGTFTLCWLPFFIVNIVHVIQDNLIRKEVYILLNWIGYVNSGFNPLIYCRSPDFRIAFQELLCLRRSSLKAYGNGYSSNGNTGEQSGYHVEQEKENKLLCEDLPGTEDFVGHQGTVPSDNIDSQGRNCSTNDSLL
A1 inh: inhibitors of the anti-apoptotic protein A1, read as caspase activation; caspase activation, % (test concentration not listed); MEF A1-2A-BIM cells, Caspase-Glo 3/7 luminescence, 3 h; percent of clofoctol response, vehicle zero; 330,000 tested, 0.066% active;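 active = over half of replicate activation scores above 10%, or exactly half above 10 with the replicate mean above 10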;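 also: wells of about 30 µL received 50 nL stock; many hits fall short of the cut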
T cruzi repl: blocks replication of Trypanosoma cruzi; inhibition, % (no concentration beside the values); T. cruzi beta-gal in NIH3T3, luminescence, 90 h; AID 1885; 300,000 tested, 1.4% active;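 active = mean inhibition across valid replicates above about 55%, limit read from the data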;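 also: signal also drops with host cell toxicity which is not excluded here; 0% = plate median of DMSO wells and 100% = zero luminescence signal; higher percent means less beta-gal luminescence so fewer parasites; stock transfer was 50 nL into about 50 µL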
rRNA inh HTS OD600: second read-out of rRNA inh HTS, no call of its own (marks repeat the call); OD600 change, %; measured here: OD600 growth;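 optical density of the mix in the first replicate; 0 = DMSO median and -100 = no signal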
rRNA inh HTS RFP: also measured in rRNA inh HTS; calls as there; RFP signal change, %; measured here: RFP humanized mutant strains;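 first replicate; 0 = DMSO median and -100 = no signal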
The depositor's hits bear a star.

What do the screens show for `O=C(c1cccs1)N1CCN(CCCc2ccccc2)CC1`?
ALR inh: -7; Beta cell apopt: 7; Calb FLC: -22; LANA-H2B inh: -2.3; Beta2AR agonist: -2; A1 inh: -0.8; T cruzi repl: 32

Results for Cc1cc(NC(=O)c2c(C)noc2C)no1 ?
ALR inh: -10; Beta cell apopt: -6; Calb FLC: -1; LANA-H2B inh: 1.1; rRNA inh HTS: 10; Beta2AR agonist: 6; A1 inh: 0.5; T cruzi repl: -35; rRNA inh HTS OD600: 2; rRNA inh HTS RFP: -0.8

Results for CCC(CC)C(=O)c1c[nH]c(C(=O)N2CCN(c3ccc(OC)cc3)CC2)c1 ?
ALR inh: 10; Beta cell apopt: -4; Calb FLC: 47; LANA-H2B inh: -11; rRNA inh HTS: 13; Beta2AR agonist: 2; A1 inh: 0.0; T cruzi repl: 13; rRNA inh HTS OD600: 2; rRNA inh HTS RFP: -1.5

Results for COc1ccc(C(=O)COC(=O)CNC(=O)c2cccc(OC(F)F)c2)cc1 ?
ALR inh: -1; Beta cell apopt: -1; Calb FLC: 3; LANA-H2B inh: -2.5; rRNA inh HTS: -5; Beta2AR agonist: -2; A1 inh: 0.3; T cruzi repl: -6; rRNA inh HTS OD600: 3; rRNA inh HTS RFP: 2.7

What do the screens show for `CCOc1ccc(/C=C/C2=NNC(=O)CC2)cc1`?
ALR inh: -14; Beta cell apopt: 7; Calb FLC: -1; LANA-H2B inh: 3.4; rRNA inh HTS: 0; Beta2AR agonist: -5; A1 inh: -7.3; T cruzi repl: 1; rRNA inh HTS OD600: -3; rRNA inh HTS RFP: -3.4

What do the screens show for `CN(Cc1c(C(=O)N/N=C/c2cccs2)nnn1-c1nonc1N)c1ccccc1`?
ALR inh: 4; Beta cell apopt: -5; LANA-H2B inh: -1.7; rRNA inh HTS: -4; Beta2AR agonist: -4; A1 inh: -0.8; T cruzi repl: -1; rRNA inh HTS OD600: -10; rRNA inh HTS RFP: -6.8

What do the screens show for `O=C(NCc1ccco1)C(c1cccs1)N(C(=O)C1COc2ccccc2O1)c1cccc(O)c1` (stereo not drawn)?
ALR inh: -2; Beta cell apopt: -2; Calb FLC: 0; LANA-H2B inh: 2.1; Beta2AR agonist: 15; A1 inh: 0.5; T cruzi repl: -3

What do the screens show for `Cc1ccc(NS(=O)(=O)c2ccccc2[N+](=O)[O-])cc1C`?
ALR inh: 40; Beta cell apopt: 2; Calb FLC: -32; LANA-H2B inh: 2.2; rRNA inh HTS: 2; Beta2AR agonist: 2; A1 inh: 0.7; T cruzi repl: -8; rRNA inh HTS OD600: 4; rRNA inh HTS RFP: -1.0

Results for CCC(C)(C)n1nnnc1C(C(C)C)N1CCSCC1 (stereo not drawn) ?
ALR inh: 2; Beta cell apopt: -1; Calb FLC: 25; LANA-H2B inh: -0.6; rRNA inh HTS: 1; Beta2AR agonist: 1; A1 inh: 0.3; T cruzi repl: -2; rRNA inh HTS OD600: -3; rRNA inh HTS RFP: -1.5

How did C[C@H](NC(=O)OC(C)(C)C)c1nnc(SCC(N)=O)o1 do in these assays?
ALR inh: 23; Beta cell apopt: -5; Calb FLC: 7; LANA-H2B inh: 2.8; Beta2AR agonist: 2; A1 inh: 0.3; T cruzi repl: 7

How did COc1cccc(C2SCC(=O)N2c2cccc(C)c2)c1OC (stereo not drawn) do in these assays?
ALR inh: -42; Beta cell apopt: -4; Calb FLC: 51; LANA-H2B inh: 1.4; Beta2AR agonist: 1; A1 inh: 0.3; T cruzi repl: -8

How did CC(C)(C)c1nnc(NC(=O)c2ccc3c(c2)OCO3)s1 do in these assays?
ALR inh: -1; Beta cell apopt: -4; Calb FLC: -2; LANA-H2B inh: 3.5; rRNA inh HTS: 2; Beta2AR agonist: -16; A1 inh: -1.2; T cruzi repl: 1; rRNA inh HTS OD600: 6; rRNA inh HTS RFP: -3.5

Results for CCOc1ccccc1C(=O)NCC(=O)OCCOc1cccc(Cl)c1 ?
ALR inh: -5; Calb FLC: 4; LANA-H2B inh: 2.9; rRNA inh HTS: -33*; Beta2AR agonist: 19; A1 inh: -0.2; T cruzi repl: 24; rRNA inh HTS OD600: -4.3*; rRNA inh HTS RFP: 5.2*

Results for Cc1ccc(Sc2nc(-c3ccccc3)ccc2C#N)cc1 ?
ALR inh: 0; Beta cell apopt: 3; Calb FLC: 2; LANA-H2B inh: 4.8; Beta2AR agonist: -6; A1 inh: 0.5; T cruzi repl: 12

Results for CCOc1ccc(-c2cc(C(=O)OC)nc3c2c(=O)n(C)c(=O)n3C)cc1 ?
ALR inh: -12; Beta cell apopt: -2; Calb FLC: -7; LANA-H2B inh: 1.7; rRNA inh HTS: -4; Beta2AR agonist: 12; A1 inh: -1.3; T cruzi repl: -7; rRNA inh HTS OD600: -6; rRNA inh HTS RFP: -0.9

What do the screens show for `CCOc1ccccc1OCC(=O)Oc1ccc(C)c(C)c1`?
Beta cell apopt: -5; Calb FLC: 1; LANA-H2B inh: -4.7; rRNA inh HTS: 3; Beta2AR agonist: 5; A1 inh: -0.2; T cruzi repl: -7; rRNA inh HTS OD600: -17; rRNA inh HTS RFP: -4.9

What do the screens show for `CCCCC1(C)NC(=S)N2N1C(=S)NC2(C)CCCC` (stereo not drawn)?
ALR inh: 14; Beta cell apopt: -5; Calb FLC: -4; LANA-H2B inh: -2.7; rRNA inh HTS: 2; Beta2AR agonist: 3; A1 inh: -0.5; T cruzi repl: -2; rRNA inh HTS OD600: 11; rRNA inh HTS RFP: 2.0

What do the screens show for `COc1cc(CCC(=O)NNC(=O)c2ccc(Cl)cc2)cc(OC)c1OC`?
Calb FLC: 5; LANA-H2B inh: -4.3; rRNA inh HTS: 8; Beta2AR agonist: 3; A1 inh: 0.2; T cruzi repl: -9; rRNA inh HTS OD600: 5; rRNA inh HTS RFP: -3.5

Results for Cc1cccc(C)c1Nc1c(-c2ccccn2)nc2ccccn12 ?
ALR inh: 94*; Beta cell apopt: 14; Calb FLC: -15; LANA-H2B inh: -0.1; rRNA inh HTS: -52; Beta2AR agonist: 4; A1 inh: 0.5; T cruzi repl: 61*; rRNA inh HTS OD600: -77; rRNA inh HTS RFP: -31

How did Cc1ccc(NC(=O)CN2CCC(C(=O)c3ccc4c(c3)OCCO4)CC2)cc1 do in these assays?
ALR inh: 0; Beta cell apopt: 1; Calb FLC: 8; LANA-H2B inh: 1.5; Beta2AR agonist: -4; A1 inh: 0.8; T cruzi repl: 15

What do the screens show for `O=C(Nc1ccccc1C(=O)Nc1ccncc1)c1ccccc1`?
Beta cell apopt: -5; Calb FLC: -4; LANA-H2B inh: -1.3; rRNA inh HTS: -6; Beta2AR agonist: 3; A1 inh: 0.3; T cruzi repl: 1; rRNA inh HTS OD600: -9; rRNA inh HTS RFP: -2.4

Results for O=C(CNS(=O)(=O)c1ccccc1Br)OCC(=O)N1CCc2ccccc21 ?
ALR inh: 0; Beta cell apopt: -9; Calb FLC: -13; LANA-H2B inh: 0.5; Beta2AR agonist: -1; A1 inh: 0.6; T cruzi repl: -14

How did CCc1ccc(/C=C/c2c([N+](=O)[O-])c(=O)n(C)c(=O)n2C)cc1 do in these assays?
Beta cell apopt: 2; Calb FLC: -26; LANA-H2B inh: 1.6; rRNA inh HTS: 11; Beta2AR agonist: 15; A1 inh: 0.4; T cruzi repl: 21; rRNA inh HTS OD600: -20; rRNA inh HTS RFP: 0.1

How did CCCCOC(=O)Nc1ccc(S(=O)(=O)Nc2ccc([N+](=O)[O-])cc2)cc1 do in these assays?
ALR inh: -5; Beta cell apopt: 11; Calb FLC: -2; LANA-H2B inh: -7.7; Beta2AR agonist: 1; A1 inh: 0.3; T cruzi repl: 0

Results for COc1ccc(NC(=O)CSc2ccc3c4c(cccc24)C(=O)c2ccccc2-3)cc1 ?
ALR inh: 51; Beta cell apopt: -12; Calb FLC: 3; LANA-H2B inh: 4.5; Beta2AR agonist: -444; A1 inh: -1.3; T cruzi repl: 34

Results for CC1CCN(CCCn2c(=S)[nH]c3ccc(N4CCOCC4)cc3c2=O)CC1 ?
ALR inh: 85*; Beta cell apopt: 1; Calb FLC: 1; LANA-H2B inh: -3.5; Beta2AR agonist: 1; A1 inh: -0.3; T cruzi repl: -3

How did CCC(=O)N1CCc2cc(S(=O)(=O)Nc3ccccc3C)ccc21 do in these assays?
ALR inh: 1; Beta cell apopt: 9; Calb FLC: -9; LANA-H2B inh: 1.8; rRNA inh HTS: 6; Beta2AR agonist: -15; A1 inh: -0.1; T cruzi repl: -4; rRNA inh HTS OD600: 5; rRNA inh HTS RFP: -1.4

What do the screens show for `COc1cc(NC(=S)NCCCN(C)C)c(OC)cc1NC(=O)c1ccco1`?
ALR inh: 7; Beta cell apopt: 2; Calb FLC: -8; LANA-H2B inh: -3.6; rRNA inh HTS: 16; Beta2AR agonist: -20; A1 inh: -0.4; T cruzi repl: -6; rRNA inh HTS OD600: 10; rRNA inh HTS RFP: -5.8

What do the screens show for `O=C(O)C1C2CC2CN1C(=O)c1ccc(Cl)cc1Cl` (stereo not drawn)?
ALR inh: 0; Beta cell apopt: -4; Calb FLC: 3; LANA-H2B inh: 2.4; rRNA inh HTS: 14; Beta2AR agonist: -3; A1 inh: 0.3; T cruzi repl: -8; rRNA inh HTS OD600: 5; rRNA inh HTS RFP: 0.8

How did COc1cccc(CC(=O)Nc2ccccc2C(=O)N2CCOCC2)c1 do in these assays?
ALR inh: 0; Beta cell apopt: -3; Calb FLC: 0; LANA-H2B inh: -0.1; Beta2AR agonist: 3; A1 inh: -0.4; T cruzi repl: 4

How did CCOC(=O)C1=C(O)CSC1=Nc1ccc(C)cc1 do in these assays?
ALR inh: -14; Beta cell apopt: -3; Calb FLC: -63; LANA-H2B inh: 3.6; rRNA inh HTS: 6; Beta2AR agonist: 7; A1 inh: 0.4; T cruzi repl: 9; rRNA inh HTS OD600: -2; rRNA inh HTS RFP: 1.2

How did O=C(O)C1C2CCC(O2)C1C(=O)Nc1cccc(Cl)c1 (stereo not drawn) do in these assays?
ALR inh: -5; Beta cell apopt: -6; Calb FLC: 8; LANA-H2B inh: 0.8; rRNA inh HTS: 8; Beta2AR agonist: 0; A1 inh: 0.2; T cruzi repl: -5; rRNA inh HTS OD600: 6; rRNA inh HTS RFP: 2.6

What do the screens show for `C=CC[C@@H](CC(=O)OC(C)(C)C)C(=O)OC[C@H]1CCCN1C(=O)[C@@H](CC=C)CC(=O)N[C@H](CO)Cc1ccccc1`?
ALR inh: 1; Beta cell apopt: 0; LANA-H2B inh: -2.0; rRNA inh HTS: -5; Beta2AR agonist: 3; A1 inh: -0.4; rRNA inh HTS OD600: -1; rRNA inh HTS RFP: 8.6

How did Cc1c(C)n(C(=O)CSc2nc3ccccc3[nH]2)c2ccccc12 do in these assays?
ALR inh: 24; Beta cell apopt: -7; Calb FLC: -6; LANA-H2B inh: 0.2; Beta2AR agonist: 3; A1 inh: -0.1; T cruzi repl: -8

Assay outcomes deposited in PubChem by several laboratories.

The list is partial, so the mix of outcomes need not match the whole.
